UCH37 inh: inhibitors of human UCH37 deubiquitinase, primary screen, biochemical, Ub-AMC cleavage, fluorescence; actives 0.33% (n = 330,000); inhibition, % (concentration not given with the values); purified proteasome/UCH37;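 active = mean of two replicates above 20%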;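 note: 0% = compound-free wells with enzyme and 100% = wells lacking proteasome; stock transfer was 100 nL into about 20 µL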
Target sequence (Q9Y5K5 whole entry, looked up): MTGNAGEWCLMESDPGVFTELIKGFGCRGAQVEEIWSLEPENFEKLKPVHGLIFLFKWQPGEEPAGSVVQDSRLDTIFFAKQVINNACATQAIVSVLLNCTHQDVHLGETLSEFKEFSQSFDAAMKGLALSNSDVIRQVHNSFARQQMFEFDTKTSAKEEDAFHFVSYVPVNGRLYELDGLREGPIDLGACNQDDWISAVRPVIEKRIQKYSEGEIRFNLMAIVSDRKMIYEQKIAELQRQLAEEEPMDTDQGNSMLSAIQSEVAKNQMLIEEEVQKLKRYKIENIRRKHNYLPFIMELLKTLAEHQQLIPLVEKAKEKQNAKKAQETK
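Assay system: Proteasome-bound UCH37. Buffer or medium: pH 7.4 Tris-HCl (50 mM) with ovalbumin, ATP-MgCl2, DTT. Incubation: 30 min preincubation with enzyme, 25 min cleavage at room temperature. Measured by: fluorescence, ex 355 nm, em 460 nm. Read-out basis: percent inhibition. Control set: wells without proteasome as full block, compound-free enzyme plus substrate as uninhibited.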
E coli growth: E. coli growth inhibition, primary screen, OD600. actives 0.21% (n = 330,000). OD600 absorbance (no concentration beside the values). AID 1053175, 2014. Escherichia coli growth, 23 h; hits give low values;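 active = OD600 absorbance below the run mean of sample wells minus 3.6 SD, in any replicate, cut at about 0.56 in these data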;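 note: stock transfer was 300 nL into about 60 µL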
* marks the source's active call; other numbers are inactive results.

Second line of a record – UCH37 inh, E coli growth
- Cc1nnc(SCc2cc(=O)[nH]c(N=C(N)Nc3ccccc3)n2)s1
 : 1.7, 0.695
- CN1CCN(N=Cc2ccc(C#N)cc2)CC1
 : 5.0, 0.647
- CCCCOc1c(Br)cc(C=NO)cc1OCC
 : 2.8, 0.661
- O=C(Cn1cncn1)NN=Cc1cccnc1
 : 3.7, 0.688
- CC1=CCC(C(=O)O)(C(=O)NN=Cc2cccnc2)C(c2ccccc2)C1 (stereo not given)
 : 1.2, 0.732
- CN(C)S(=O)(=O)c1cccc(NC(=S)NN=Cc2cccc(O)c2)c1
 : 0.5, 0.703
- C=CCOc1cccc(C=NNC(=O)CN(c2cc(Cl)ccc2OC)S(=O)(=O)c2ccc(C)c([N+](=O)[O-])c2)c1
 : 1.7, 0.709
- CCN(CC)C(=O)COc1ccc(C(C)=NNC(=O)c2ccccc2-n2cccc2)cc1
 : -0.3, 0.675
- O=C(NN=Cc1c(Cl)[nH]c2ccccc12)c1sc2ccccc2c1Cl
 : -5.7, 0.714
- CCC(=NNC(=O)CCC(=O)Nc1ccccc1OC)c1ccccc1
 : 0.7, 0.691
- O=C(O)c1ccc(C=NNc2ncc(Cl)cc2Cl)cc1
 : 12.5, 0.685
- COc1ccc(C(=O)Nc2ccccc2C(=O)NN=Cc2ccccn2)cc1OC
 : 3.2, 0.633
- CN(C)c1ccc(C=NN2CCN(Cc3ccccc3Cl)CC2)cc1
 : 0.9, 0.682
- C(=NNc1ncnc2sc3c(c12)CCC3)c1ccncc1
 : 15.8, 0.707
- COc1ccc(C=NNC(=O)c2ccc(O)cc2)cc1CN1CCCc2ccccc21
 : -1.4, 0.724
- CC(/C=C/c1ccc(OCc2ccccc2)cc1)=NO
 : 6.0, 0.725
- CC(=NNC(=O)CN(c1ccccc1Br)S(C)(=O)=O)c1cccs1
 : 3.3, 0.786
- O=[N+]([O-])c1cc(Cl)cc(C=NNC(=S)Nc2ccc(S(=O)(=O)N3CCOCC3)cc2)c1O
 : 12.6, 0.62
- COc1ccc(N(C(C)C(=O)NN=Cc2cc(Br)c(C)o2)S(C)(=O)=O)cc1 (stereo not given)
 : 0.5, 0.681
- C=CCn1c(N=Cc2ccc(OC)cc2)nc2ccccc21
 : 1.2, 0.654
- Cc1cc(S(=O)(=O)N=C(N)c2ccc(C(N)=O)cc2)cc(C)c1F
 : 1.3, 0.675
- CC1(C)CC(=O)CC(=NNC(=O)C2CC23CCC3)C1 (stereo not given)
 : -0.3, 0.639
- NC(=S)NN=Cc1c[nH]c2ccc(OCc3ccccc3)cc12
 : -1.1, 0.672
- O=C(NN=Cc1cc2c(cc1Cl)OCO2)c1cccc(Br)c1
 : -6.6, 0.715
- CC(=NNc1ccc(C#N)cc1[N+](=O)[O-])c1ccc(O)cc1
 : 3.0, 0.701
- COc1ccc(C=NNc2nc(N3CCCC3)nc(N3CCCC3)n2)cc1
 : 4.7, 0.683
- Cc1cnn(-c2cc(NN=Cc3ccc(F)cc3)ncn2)c1
 : 5.0, 0.721
- CC(=NNC(=O)c1ccc(F)cc1)c1cccc(NC(=O)c2ccco2)c1
 : 5.5, 0.695
- CC(=NNC(=O)COc1ccc(C)cc1[N+](=O)[O-])c1cccs1
 : 1.8, 0.629
- C=C1CC(C(=O)NN=Cc2ccc(O)cc2)C1
 : 1.9, 0.735
- Cc1cc(Br)cc(C=NNC(=O)c2ccc3c(c2)OCO3)c1O
 : 1.5, 0.695
- CC(=NNc1cccc2cccnc12)c1ccc(C)cc1
 : 7.8, 0.672
- C(=Nc1nccs1)c1c[nH]c2ccccc12
 : 7.3, 0.692
- COC(=O)C1=C(C)N=c2sc(=Cc3cccs3)c(=O)n2C1c1cccs1 (stereo not given)
 : 0.7, 0.722
- O=C(NN=Cc1ccc(Oc2ccccc2)cc1)c1csnn1
 : 3.5, 0.65
- O=C(Cc1c(F)cccc1Cl)NN=Cc1cccs1
 : 0.5, 0.731
- COc1ccccc1C1C(C(C)=O)=C(C)N=c2sc(=Cc3cc(OC)c(OC)c(OC)c3)c(=O)n21 (stereo not given)
 : 5.2, 0.722
- CCOc1ccc(Br)cc1C(=O)NN=Cc1ccccn1
 : 2.7, 0.597
- O=C(NN=Cc1cc(Cl)cc([N+](=O)[O-])c1O)c1ccc2c(c1)OCO2
 : 8.0, 0.704
- COc1cc(C=NNC(=O)C(=O)NCc2ccco2)ccc1O
 : 11.7, 0.675
- COc1ccc(C(C)=NNC(=O)c2sccc2-n2cccc2)cc1
 : -21.6, 0.701
- CC1CC(=NNc2nc3ccccc3[nH]2)CC(C)(C)C1 (stereo not given)
 : 6.5, 0.655
- S=c1[nH]nc(-c2cc(-c3ccccc3)n[nH]2)n1N=Cc1cccs1
 : 2.0, 0.726
- CCOc1ccc(S(=O)(=O)N(CC(=O)NN=Cc2ccc(-c3ccc([N+](=O)[O-])cc3)o2)c2ccccc2)cc1
 : 5.0, 0.759
- COc1ccc(-c2cnnc(NN=Cc3ccc(O)c(OC)c3)n2)cc1
 : 6.4, 0.752
- NC(=NOC(=O)c1ccc(Cl)cc1)c1ncc([N+](=O)[O-])s1
 : 4.7, 0.462*
- O=C(NN=Cc1c[nH]c2ccccc12)c1cccc([N+](=O)[O-])c1
 : 10.4, 0.727
- CCOc1ccc(-c2c(C(=O)NN=C(C)c3ccncc3)nnn2-c2nonc2N)cc1
 : 3.9, 0.722
- CC(CCS(=O)(=O)c1ccccc1)=NO
 : 3.5, 0.671
- CSc1ccc(C=NNC(=O)c2ccc(-n3cnnn3)cc2)cc1
 : -32.7, 0.69

Complete entries, quoted from the list. Order of values: UCH37 inh	E coli growth
Entry for O=C(NN=Cc1c[nH]c2ccccc12)c1cccc([N+](=O)[O-])c1 = 10.4	0.727
Entry for CSc1ccc(C=NNC(=O)c2ccc(-n3cnnn3)cc2)cc1 = -32.7	0.69
Entry for CC(CCS(=O)(=O)c1ccccc1)=NO = 3.5	0.671
Entry for COc1ccc(C(C)=NNC(=O)c2sccc2-n2cccc2)cc1 = -21.6	0.701
Entry for S=c1[nH]nc(-c2cc(-c3ccccc3)n[nH]2)n1N=Cc1cccs1 = 2.0	0.726

Next section.
Second line of a record – UCH37 inh, E coli growth
- Cc1ccsc1C=NNC(=O)Cn1cnc2ccccc21
 : 5.9, 0.616
- Cc1scc(C(=O)NN=Cc2ccc(OC(C)C)cc2)c1C
 : 4.0, 0.675
- Cc1ccc(S(=O)(=O)NN=Cc2cccn2-c2ccc(Cl)cc2)cc1
 : -2.8, 0.721
- COc1ccc(C=NN2C(=O)CSC2=S)cc1Br
 : 2.6, 0.697
- CC(=NNC(=O)c1ccc(C)s1)c1cccc(NC(=O)c2ccoc2C)c1
 : 7.6, 0.704
- Cc1cccc(OCC(=O)NN=Cc2ccccc2C(=O)O)c1
 : -0.9, 0.649
- O=C(Cn1cnc2ccccc21)NN=Cc1ccccn1
 : 1.7, 0.725
- Cc1ccc(SCC(O)=C(C#N)c2nc3ccccc3s2)cc1
 : 0.9, 0.712
- CCNC(=S)NN=Cc1ccccc1[N+](=O)[O-]
 : 9.8, 0.703
- CCc1c(C(=O)NN=Cc2ccc(C)o2)csc1C
 : 5.5, 0.65
- COc1cc(C=NNC(=O)c2cnccn2)ccc1O
 : 15.0, 0.706
- CCCCc1noc2c1C(=NO)CC(c1ccccc1)C2 (stereo not given)
 : 2.9, 0.747
- COc1cc(C=NNC(=O)c2nnn(-c3nonc3N)c2C(C)C)ccc1OCc1ccccc1
 : -26.5, 0.748
- CCCNC(=O)Cn1c(=CC(=O)C(C)(C)C)sc(=Cc2ccc(-c3ccc([N+](=O)[O-])cc3)o2)c1=O
 : 9.0, 0.711
- Cc1cc(C)nc(NN=Cc2cccc3ccccc23)n1
 : 6.7, 0.668
- Cc1ccc(C(=O)Oc2ccc(C=NNC(N)=O)cc2)cc1
 : 2.6, 0.605
- O=C(CSc1nnc(SCc2ccc(Cl)cc2)s1)NN=Cc1ccccc1Cl
 : 1.9, 0.712
- COc1ccc(CCNC(=O)CC(C)=NNC(=O)c2cnccn2)cc1
 : 1.0, 0.639
- Cc1cc(C)nc(N=C(N)Nc2ccc(F)c([N+](=O)[O-])c2)n1
 : 4.4, 0.698
- Cc1ccc(-c2nn(-c3ccccc3)cc2C=NNS(=O)(=O)c2ccccc2)cc1
 : 3.3, 0.684
- CCC(=NNC(=O)c1ccc2c(c1)OCO2)c1ccccc1
 : -1.0, 0.7
- CC(=NNC(=O)c1cccnc1)c1cc2ccccc2o1
 : 8.6, 0.666
- COc1ccc(C(=O)NN=Cc2ccc(N3CCOCC3)s2)cc1OC
 : 3.2, 0.699
- Cc1ccc(C=NN=Cc2ccc(C)s2)s1
 : 1.8, 0.669
- CC1=NNC(=O)C1CCC(=O)NN=Cc1cccc(Cl)c1 (stereo not given)
 : 0.7, 0.585
- CC(=NO)C(C)NC(=O)c1ccccc1 (stereo not given)
 : 1.8, 0.674
- CC(=NNC(=O)c1cc(C)nc2ccc(C)cc12)c1ccncc1
 : 5.2, 0.72
- Fc1cccc(Cl)c1C=NNc1c(Cl)cncc1Cl
 : 5.7, 0.698
- CCNC(=S)NN=Cc1cc(Br)cc(Br)c1OC
 : 3.9, 0.724
- O=C(CON=Cc1ccccc1OC(F)F)NCc1cccs1
 : 4.6, 0.662
- CC(C)CCN(N=O)C(Cc1ccccc1)CN(N=O)C(Cc1ccccc1)CN(C)N=O (stereo not given)
 : 0.4, 0.694
- Brc1ccc(C=Nn2cnnc2)s1
 : 4.6, 0.636
- COc1cc(C=NNC(=O)/C(=C\c2ccc3c(c2)OCO3)NC(=O)c2ccccc2)ccc1O
 : -18.5, 0.697
- CC(=NO)C(=NO)c1ccc(C)o1
 : -0.8, 0.695
- COc1cccc(C=NNC(=O)c2nnn(-c3nonc3N)c2-c2cccs2)c1
 : 1.0, 0.65
- Cn1cnc2c(NN=Cc3cccs3)ncnc21
 : 14.6, 0.693
- O=C1C2C3C=CC(C4CC34)C2C(=O)N1N=Cc1ccc(-c2ccc(Cl)cc2[N+](=O)[O-])o1 (stereo not given)
 : 5.8, 0.759
- CCOC(=O)C(=NNC(=O)c1ccccc1)c1ccccc1
 : 2.1, 0.598
- Cc1ccc(C=NNc2nc(C(C)(C)C)cs2)o1
 : 1.9, 0.695
- COc1ccc(NS(=O)(=O)c2cccc(C(=O)NN=Cc3ccc4c(c3)OCCO4)c2)cc1
 : -4.2, 0.693
- COc1ccc(C(=O)NN=Cc2ccc3cccc(OCc4ccccc4)c3n2)cc1
 : -230.9, 0.759
- Cn1c(N=Cc2cc(Cl)ccc2O)nc2ccccc21
 : -1.8, 0.65
- C=C(C)C1CC=C(C)C(=NNC(=O)CNc2ccccc2OC)C1 (stereo not given)
 : 1.5, 0.699
- CCOC(=O)NN=Cc1ccc(N(CC)CC)cc1O
 : -4.0, 0.696
- CCCCCCCCCCS(=O)(=O)NN=Cc1ccc(O)cc1
 : 2.1, 0.697
- O=C1C2C(C(=O)N1N=Cc1cccc([N+](=O)[O-])c1)C1C=CC2C12CC2 (stereo not given)
 : 4.1, 0.671
- NC(=NN=Cc1cccc(O)c1)c1nonc1N
 : 7.0, 0.638
- CCN(CC)c1ccc(C=Nn2c(=S)[nH]nc(C)c2=O)cc1
 : 1.3, 0.732
- CCCCNC(=O)ON=C(N)CS(=O)(=O)C(C)(C)C
 : 1.4, 0.637
- CC(=NNC(=O)c1cccc(Br)c1)c1ccc(Br)cc1
 : -1.8, 0.719

(further entries)
Second line of a record – UCH37 inh, E coli growth
- O=C(CN(c1ccccn1)S(=O)(=O)c1ccccc1)NN=Cc1cccc([N+](=O)[O-])c1
 : 1.2, 0.628
- CC(C)(C)c1ccc(C=NNC(=O)c2ccccn2)cc1
 : 5.9, 0.729
- Cc1ccc(C=NNC(=O)c2ccc(-n3cnnn3)cc2)cc1
 : -13.8, 0.687
- CC(=NNC(=O)c1ccc(O)cc1)c1cccc(NC(=O)c2ccc(Cl)cc2)c1
 : 0.7, 0.64
- C=CCc1cccc(C=NNC(=O)c2ccccc2Br)c1O
 : 0.2, 0.671
- CCC1CCCCN1c1ccc([N+](=O)[O-])cc1C=NNC(=O)Cn1c2ccccc2c(=O)c2ccccc21 (stereo not given)
 : -10.9, 0.707
- CC(=NNc1cccc([N+](=O)[O-])c1)c1ccccc1O
 : 4.8, 0.701
- CCc1ccc(OCC(=O)NN=Cc2cc([N+](=O)[O-])ccc2N2CCCCCC2)cc1
 : 6.5, 0.724
- Cc1ccc(CNC(=O)CON=Cc2ccc(C(C)(C)C)cc2)cc1
 : 2.1, 0.717
- Cc1cc(-c2ccc(C=Nn3cnnc3)o2)ccc1Cl
 : 3.9, 0.714

Part of the list above, as labelled records.
SMILES: CC(=NNc1cccc([N+](=O)[O-])c1)c1ccccc1O
  UCH37 inh = 4.8 | E coli growth = 0.701
SMILES: O=C(CN(c1ccccn1)S(=O)(=O)c1ccccc1)NN=Cc1cccc([N+](=O)[O-])c1
  UCH37 inh = 1.2 | E coli growth = 0.628

Other entries:
Second line of a record – UCH37 inh, E coli growth
- CCn1c(C)csc1=NS(=O)(=O)c1ccccc1
 : -2.1, 0.71
- COc1ccc(OCC(=O)NN=C(C)Cc2ccccc2)cc1
 : 3.3, 0.71
- O=C(CN(c1ccccc1Cl)S(=O)(=O)c1ccccc1)NN=Cc1ccccc1C(=O)O
 : 0.4, 0.665
- CCc1ccc(OCC(=O)NN=Cc2cc([N+](=O)[O-])ccc2N2CCOCC2)cc1
 : 1.1, 0.726
- Nc1nnnn1CC(=O)NN=Cc1ccc(-c2cccc(Cl)c2)o1
 : -49.0, 0.74
- CC(=NOC(=O)Nc1ccc(Cl)cc1)c1ccc(F)c(F)c1
 : 4.7, 0.58
- COc1ccc(C)cc1NC(=O)CC(C)=NNC(=O)Cc1cccc2ccccc12
 : 0.5, 0.699
- Cc1cc(C=NNc2ncnc(N)c2[N+](=O)[O-])c(C)n1-c1ccccc1
 : 11.9, 0.715

Assay outcomes: PubChem BioAssay, ICCB-Longwood Screening Facility, Harvard Medical School

This is a subset. The share of hits here may be higher or lower than overall.
